StopGo reporter: High Throughput Screening for Foot and Mouth Disease Virus Antivirals. human cells with a luciferase reporter of 2A StopGo recoding; control for the full effect not named in the record. Potency, µM (titrated, usually from 57.9 µM), for inactives: at the highest dose signal change, negative = less light. actives 1.2% (n = 410,000). AID 1159524, 2015; active = well fitted falling curve with a large enough effect; inconclusive = small, poorly fitted or top-dose-only effect; inactive = no such curve, though single readings can be large or run the other way; tested in HEK293T cells; further: on the % scale 0 is the no-effect control and ±100 the full control effect; nearly all actives have a fitted effect of over 45% in size; luciferase light after 4 h
Lassa entry inh: qHTS for Inhibitors of binding or entry into cells for Lassa Virus; Lassa virus pseudotype entry inhibition, cell reporter; control for the full effect not named in the record; Potency, µM (series often up to 37.9 µM), for the others: at the highest dose activity change, negative = inhibition, hits mostly inhibitors; actives 1.2% (n = 300,000); AID 540256, 2011; active means well fitted inhibition curve with a large enough effect; inconclusive means small, poorly fitted or top-dose-only effect, or effect the other way; inactive means flat fitted curve, though single readings scatter; tested in HEK293 cells; further: on the % scale 0 is the no-effect control and ±100 the full control effect; nearly all actives have a fitted effect of over 50% in size; luciferase read-out
NS1 function inh: qHTS Assay for Inhibitors of Influenza NS1 Protein Function; S. cerevisiae slowed by influenza A NS1, growth recovery by OD600; Potency, µM (series often up to 46.1 µM), for the others: at the highest dose activity, positive = more growth; actives 0.4% (n = 270,000); active means well fitted rising curve with a large enough effect; inconclusive means small, poorly fitted or top-dose-only effect; inactive means no such curve, though single readings can be large or run the other way; further: nearly all actives have a fitted effect of over 50% in size
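Read-out: OD600 growth recovery of NS1-expressing budding yeast. Cells grown overnight at 30C in -URA glucose medium, washed, resuspended and diluted 1:100 in 2% galactose assay medium, pH 6.0. Same strain lacking NS1 served as positive control.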
MARV entry inh: qHTS for inhibitors of binding or entry into cells for Marburg Virus. Marburg virus pseudotyped entry inhibition, cell reporter; control for the full effect not named in the record; about a third of the inactives were read at about 46 µM. Potency, µM (series often up to 37.8 µM), for the others: at the top dose activity change, negative = inhibition, hits mostly inhibitors. actives 1.8% (n = 300,000); active = well fitted inhibition curve with a large enough effect; inconclusive = small, poorly fitted or top-dose-only effect, or effect the other way; inactive = flat fitted curve, though single readings scatter; tested in HEK293 cells; about a fifth of its hits are not listed in these tables; further: on the % scale 0 is the no-effect control and ±100 the full control effect; luciferase read-out
Cruzain Triton: qHTS Assay for Promiscuous and Specific Inhibitors of Cruzain (with detergent) | AID 1478, 2009 | Cruzipain (Trypanosoma cruzi), P25779 | purified cruzain, Z-FR-AMC fluorescence, 0.01% Triton | actives 0.43% (n = 200,000) | Potency, µM, without a hit: max response, negative = inhibition, usual class: inhibitors;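 further: plate controls were neutral wells for no effect and buffer without enzyme for full effect; nearly all actives have a fitted effect of over 40% in size; top concentration of the series not given in the record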
Target sequence (P25779 123-467 limits assumed): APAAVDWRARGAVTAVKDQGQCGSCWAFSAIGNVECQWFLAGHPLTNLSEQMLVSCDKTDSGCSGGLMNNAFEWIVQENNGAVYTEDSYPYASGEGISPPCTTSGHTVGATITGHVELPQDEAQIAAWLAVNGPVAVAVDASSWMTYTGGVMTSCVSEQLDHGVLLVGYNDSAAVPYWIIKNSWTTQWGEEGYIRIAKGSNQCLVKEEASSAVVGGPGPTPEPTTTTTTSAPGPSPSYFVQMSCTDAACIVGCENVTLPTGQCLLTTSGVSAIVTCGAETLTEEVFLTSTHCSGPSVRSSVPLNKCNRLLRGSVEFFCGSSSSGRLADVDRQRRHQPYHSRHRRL
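Compounds were screened in titration against cruzain (1.5 nM) with 0.01% Triton X-100 to counter colloidal aggregation. Activity was the AMC fluorescence increase over 60 s after adding 2 uM Z-FR-AMC at pH 5.5.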
SARS PLpro yeast: qHTS of Yeast-based Assay for SARS-CoV PLP; S. cerevisiae expressing SARS-CoV PLpro, growth rescue; control for the full effect not named in the record; Potency, µM (highest dose often 32.9 µM), inactives show at the top dose activity, positive = growth rescue; actives 0.19% (n = 330,000); AID 485353, 2010; active means well fitted rising curve with a large enough effect; inconclusive means small, poorly fitted or top-dose-only effect; inactive means no such curve, though single readings can be large or run the other way; further: 0% is about no effect; nearly all actives have a fitted effect of over 55% in size; growth read by luminescence after 48 h
Cruzain inh noDet: qHTS Assay for Promiscuous and Specific Inhibitors of Cruzain (without detergent). Cruzipain (Trypanosoma cruzi), P25779. purified cruzain, Z-FR-AMC fluorescence, no detergent. Potency, µM, for inactives: max response, negative = inhibition, actives largely listed as inhibitors. actives 2.3% (n = 200,000);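 further: plate controls were enzyme without inhibitor for no effect and buffer without enzyme for full effect; nearly all actives have a fitted effect of over 40% in size; top concentration of the series not given in the record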
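Detergent-free condition (0.00005% Triton X-100) in acetate buffer pH 5.5 with DTT. 1.5 nM enzyme and compound were pre-mixed 15 min, then 2 uM Z-FR-AMC substrate added; reaction progress from fluorescence change between first and third reads (60 s).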
RE007 growth inh: qHTS Assay for Inhibitors of the HIV-1 protein Vpr. AID 651644, 2012. Potency, µM (titrated, usually from 92.2 µM), inactives show at the highest dose activity change, negative = less growth. actives 0.21% (n = 360,000). S. pombe RE007 Vpr strain, BacTiter-Glo ATP luminescence, 24 h; control for the full effect not named in the record; active = well fitted falling curve with a large enough effect; inconclusive = small, poorly fitted or top-dose-only effect; inactive = no such curve, though single readings can be large or run the other way;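 further: on the % scale 0 is the no-effect control and ±100 the full control effect; nearly all actives have a fitted effect of over 50% in size; the assay follows cell death caused by Vpr and the record does not say whether a fall means rescue or toxicity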
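Fission yeast strain RE007, carrying one chromosomally integrated HIV-1 vpr copy, was seeded at OD 0.01 in PMG+AL medium with 23 nL pinned compound. After 24 h at 30 °C and 99% humidity, viability was read by BacTiter-Glo luminescence.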
The depositor's hits bear a star; ? = inconclusive; / = no result given; & = joins results of further samples; [ ] = dose if it differs, or a comment. Unless noted, the call rests on the fitted dose curve; in most records, active means well fitted curve in the direction sought with a large enough effect; inconclusive means small, poorly fitted or top-dose-only effect, or another doubt; inactive means no such curve, though single readings can be large; an effect the other way counts as inactive or inconclusive. Potency means the concentration at half of the fitted maximal effect. The order is random. About 4.7% of those tested had a hit in this group.

compound	Lassa entry inh	MARV entry inh	Cruzain inh noDet	Cruzain Triton	SARS PLpro yeast	NS1 function inh	StopGo reporter	RE007 growth inh
O=C(COC(=O)c1cccc(Br)c1)NCCc1ccccc1	9.8%	0.5%	3.4%	-5.3%	-28.8%	-5.9%	-9.4%	-7.4%
COc1ccc2[nH]c(=O)c(C(c3nnnn3C3CCCCC3)N3CCN(C)CC3)cc2c1 (stereo not given)	-27.7%	?	0.0%	-2.2%	2.2%	-7.5%	-4.5%	2.1%
N#CC1=C(N)NC(SCC(=O)c2ccccc2)=C(C#N)C12CCCC2	-1.0%	-19.9%	-29.9%	-10.4%	-0.6%	3.3%	3.6%	13.8%
CN1c2ccc(Cl)cc2-c2nc(SCC(=O)NCc3ccccc3)ncc2S1(=O)=O	-6.5%[46.1 µM]	/	-0.3%	4.3%	/	/	11.0%	/
CCOc1ccc(C(NC(=O)CC)c2c(O)ccc3ccccc23)cc1 (stereo not given)	/	/	/	/	7.4%	24.2%	11.6%	-5.7%
Cc1ccc(C(=O)Nc2ccc(Br)cc2)cc1S(=O)(=O)Nc1ccccn1	-13.4%	?	17.9%	-0.1%	30.0%	5.4%	15.6%	-7.1%
NS(=O)(=O)c1ccc(CCNC(=O)C2Cc3ccccc3CN2C(=O)c2ccco2)cc1 (stereo not given)	6.9%	13.7%	3.4%	1.8%	-0.1%	0.0%	8.4%	4.2%
CCCCCc1cc(=O)oc2c(C(CCN3CCCC(C)C3)c3cc(OC)c(OC)c(OC)c3)c(OC)cc(OC)c12 (stereo not given)	/	/	/	/	-0.7%	-3.7%	?	3.2%
Cc1ccccc1CSc1nc2c(sc3ccccc32)c(=O)n1CCCOC(C)C	6.9%[46.1 µM]	/	-2.9%	2.5%	/	/	-24.6%	/
Cc1ccc(-n2c(CSc3nc(C)cc(C)n3)n[nH]c2=S)cc1	-12.9%[46.1 µM]	-3.6%[46.1 µM]	/	/	0.5%	-1.4%	-9.5%	-0.1%
Cc1ccccc1C(=O)c1cccn1CC(=O)NCC1CCCO1 (stereo not given)	0.4%	3.4%	1.5%	0.0%	1.5%	-0.4%	-5.7%	-10.7%
COc1ccc([N+](=O)[O-])cc1NC1CCCCC1	?	-1.9%	-1.1%	2.4%	-25.4%	-24.9%	-28.2%	?
COc1cccc(C=Nc2cc(C(C)C)c(O)cc2C)c1O	?	19.4%	/	/	/	/	-20.3%	-6.3%
COCCC(=O)N1CCC(Oc2ccc(C(=O)NC3CCOC(C)(C)C3)cc2)CC1 (stereo not given)	8.2%[46.1 µM]	6.2%[46.1 µM]	/	/	-2.4%	3.6%	-1.8%	9.0%
CC1=C(C(=O)OCc2ccccc2)C(c2ccc(C(C)(C)C)cc2)NC(=O)N1CCCCCC(=O)O (stereo not given)	?	9.6%	?	-23.4%&-21.3%	-29.4%	14.8%	-23.8%	11.9%
CC(C)[C@H](NC(=O)N1C[C@H]2C[C@@H](C1)c1cccc(=O)n1C2)C(=O)Nc1ccccc1F	/	/	/	/	-9.7%	12.2%	-10.0%	4.5%
O=C(Nc1ccc(N2CCCC2)cc1)c1cccc(Cl)c1	?	?	/	/	-2.0%	3.0%	-21.8%	-8.4%
CCN(CC)S(=O)(=O)c1ccc(N2CCOCC2)c(NC(=O)c2sccc2C)c1	?	-24.6%	/	/	12.6%	/	2.9%	12.2%
CCn1cc2nc(SCc3ccc(C)cc3)n(CCc3ccccc3)c(=O)c2n1	?	/	?	-4.7%	/	/	-24.6%	/
NCCNc1ccc(C(=O)N2c3ccccc3Sc3ccccc32)cc1[N+](=O)[O-]	?	?	/	/	2.0%	?	?	12.7%
COc1ccc(NC(=O)CC(NCCc2ccccc2)C(=O)O)c(OC)c1 (stereo not given)	-1.7%	-1.7%	4.2%	-0.1%	-9.0%	-8.9%	-11.8%	-4.6%
O=C(NC1CCCC1)c1cc(-c2ccc(F)cc2)on1	?	?	/	/	-1.2%	-9.7%	19.5%	8.9%
COC(=O)CCS(=O)(=O)c1ccc(NC(C)=O)cc1	0.8%	14.9%	-3.5%	3.1%	1.9%	8.9%	/	1.1%
COc1ccc(CCC(=O)NNC(=O)Nc2ccc(C(C)C)cc2)cc1	-15.6%[46.1 µM]	4.7%[46.1 µM]	/	/	6.5%	14.2%	0.5%	5.7%
Cc1cc2oc(=O)cc(-c3ccccc3)c2c(C)c1-c1ccc(F)c(Cl)c1	/	/	5.62µM*	0.6%	22.7%	/	-14.0%	-5.5%
CCN(CC)S(=O)(=O)c1ccc(C)c(NC(=O)COC(=O)C=C(C)C)c1	/	/	/	/	-0.2%	1.3%	-20.3%	19.5%
O=C1/C(=C\c2ccc3ccccc3c2)CCCc2ccccc21	?	?	?	-4.7%	-9.2%	-14.7%	2.3%	-6.3%
O=C(NCc1ccccc1)C1=C[C@H](c2coc3ccccc3c2=O)C[C@H](OCCCCO)O1	/	/	/	/	-1.8%	1.2%	-3.6%	-10.4%
CCN(C(=O)c1cccn(Cc2ccccc2C)c1=O)c1ccccc1	9.4%[46.1 µM]	/	4.0%	-0.2%	/	/	-20.4%	/
CCOc1ccc2nc(NC(=O)C3CCN(S(=O)(=O)c4cnc[nH]4)CC3)sc2c1	/	/	?	-5.4%	?	0.0%	-9.3%	5.0%

compound	Lassa entry inh	MARV entry inh	Cruzain inh noDet	Cruzain Triton	SARS PLpro yeast	NS1 function inh	StopGo reporter	RE007 growth inh
C[C@]12CC[C@@H]3c4ccc(O)cc4[C@@H](O)C[C@H]3[C@@H]1CC[C@@H]2O	-19.0%	-4.3%	-1.8%	5.7%	3.7%	-5.0%	/	/
CCC1CCCCN1Cc1nc2c(c(=O)n(C)c(=O)n2C)n1Cc1cccc2ccccc12 (stereo not given)	/	4.2%	8.9%	1.5%	-2.3%	-40.6%	?	8.9%
COc1cc(O)c(C(CC(=O)N2CCCCC2)c2cc(OC)c(OC)c(OC)c2)c(OC)c1 (stereo not given)	/	/	/	/	-2.0%	-4.4%	-11.8%	-5.7%
O=[N+]([O-])c1cccc(CN2CC=C(c3ccc(F)cc3)CC2)c1	/	/	/	/	-2.5%	-16.7%	?	-22.0%
CCC(=O)N1CCc2cc(-c3csc(NC(=O)c4ccco4)n3)ccc21	13.1%	-7.2%	/	/	-14.9%	11.1%	-18.8%	-5.1%
CCCc1[nH]nc2c1C(c1ccc(OC)c(Cn3nc(C)c(Br)c3C)c1)C(C#N)=C(N)O2 (stereo not given)	-2.2%	?	-10.5%	-22.0%	/	-63.2%	?	-4.4%
O=C(CSc1nnc(COc2ccccc2)o1)N1CCOCC1	/	/	/	/	-0.3%	1.1%	4.1%	-0.4%
O=C(O)CCN1C(=O)/C(=C2\C(=O)N(Cc3ccc(F)cc3)c3ccccc32)SC1=S	3.7%	-1.0%	/	/	4.6%	-13.1%	-8.4%	-11.7%
COc1ccc(/C=C/C(=O)OCC(=O)Nc2cccc(Oc3ccccc3)c2)c(OC)c1	-20.2%	-18.2%	?	-0.3%	-0.8%	1.5%	-9.1%	-7.8%
Nc1cc(S(=O)(=O)Nc2cc(Cl)ccc2Cl)ccc1N1CCCC1	/	/	/	/	1.0%	6.1%	-5.7%	10.0%
CC(OC(=O)CCc1nc2ccccc2[nH]c1=O)C(=O)c1ccccc1 (stereo not given)	2.9%	-14.6%	-0.3%	1.3%	2.0%	-11.1%	0.0%	29.7%
CC(NS(=O)(=O)/C=C/c1ccccc1)c1ccccc1 (stereo not given)	-0.5%[46.1 µM]	17.1%[46.1 µM]	/	/	-5.1%	/	11.6%	-7.6%
CCOc1ccc(NC(=O)NNC(=O)COc2ccc3ccccc3c2)cc1	/	/	/	/	3.1%	3.8%	4.8%	-5.2%
CCOc1cc(/C=C/C(=O)c2ccc(O)cc2)ccc1OCC(=O)N(C)C	?	-27.3%	13.2%	15.3%	-21.9%	-2.4%	?	-13.5%
COc1ccc(OC)c(NC(=O)CCN2CCN(c3ccccc3)CC2)c1	-7.0%	-18.9%	-5.1%	1.7%	-6.5%	-2.0%	-16.3%	3.7%
O=C(Cn1c(=O)sc2ccccc21)N1CCOCC1	3.5%	-9.5%	3.6%	7.2%	2.3%	-46.6%	/	5.0%

Molecules shown so far with an aryl thioether with sulfur outside any ring, in the order listed:
compound	Lassa entry inh	MARV entry inh	Cruzain inh noDet	Cruzain Triton	SARS PLpro yeast	NS1 function inh	StopGo reporter	RE007 growth inh
CN1c2ccc(Cl)cc2-c2nc(SCC(=O)NCc3ccccc3)ncc2S1(=O)=O	-6.5%[46.1 µM]	/	-0.3%	4.3%	/	/	11.0%	/
Cc1ccccc1CSc1nc2c(sc3ccccc32)c(=O)n1CCCOC(C)C	6.9%[46.1 µM]	/	-2.9%	2.5%	/	/	-24.6%	/
Cc1ccc(-n2c(CSc3nc(C)cc(C)n3)n[nH]c2=S)cc1	-12.9%[46.1 µM]	-3.6%[46.1 µM]	/	/	0.5%	-1.4%	-9.5%	-0.1%
CCn1cc2nc(SCc3ccc(C)cc3)n(CCc3ccccc3)c(=O)c2n1	?	/	?	-4.7%	/	/	-24.6%	/
O=C(CSc1nnc(COc2ccccc2)o1)N1CCOCC1	/	/	/	/	-0.3%	1.1%	4.1%	-0.4%

High-throughput results: PubChem, National Center for Advancing Translational Sciences (NCATS)
